RecA intein inh = Mtb RecA intein splicing inhibition. 0.75% of 290,000 active. cell-free RecA intein splicing, fluorescence. AID 2221. inhibition, %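 (about 9 µM by stock and volumes)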; in the data active = inhibition above about 30%; inconclusive = no clear call, values can overlap the other calls;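 also: 0% = vehicle wells and 100% = reference inhibitor control wells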
Target sequence (P9WHJ3 whole entry, looked up): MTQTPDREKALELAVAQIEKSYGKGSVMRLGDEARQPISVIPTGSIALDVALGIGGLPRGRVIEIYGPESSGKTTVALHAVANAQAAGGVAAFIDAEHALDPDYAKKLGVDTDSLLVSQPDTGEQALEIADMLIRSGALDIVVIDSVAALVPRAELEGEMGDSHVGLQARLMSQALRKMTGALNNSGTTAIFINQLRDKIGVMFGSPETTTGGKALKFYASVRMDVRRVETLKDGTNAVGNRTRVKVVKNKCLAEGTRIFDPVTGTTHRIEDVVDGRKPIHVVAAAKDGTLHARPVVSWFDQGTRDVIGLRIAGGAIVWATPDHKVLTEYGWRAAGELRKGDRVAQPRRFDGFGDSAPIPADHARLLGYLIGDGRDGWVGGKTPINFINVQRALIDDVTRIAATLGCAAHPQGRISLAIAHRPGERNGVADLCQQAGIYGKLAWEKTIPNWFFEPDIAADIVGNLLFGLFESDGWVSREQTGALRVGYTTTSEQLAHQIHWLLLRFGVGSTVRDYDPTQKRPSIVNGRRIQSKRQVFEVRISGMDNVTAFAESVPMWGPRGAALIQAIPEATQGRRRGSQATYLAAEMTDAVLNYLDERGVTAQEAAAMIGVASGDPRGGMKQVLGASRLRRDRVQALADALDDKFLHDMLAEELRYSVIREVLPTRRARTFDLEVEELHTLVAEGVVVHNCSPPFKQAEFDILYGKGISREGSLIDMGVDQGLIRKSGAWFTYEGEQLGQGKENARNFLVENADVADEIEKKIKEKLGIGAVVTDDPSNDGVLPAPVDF
YopH PTP inh = inhibitors of Yersinia enterocolitica YopH tyrosine phosphatase; 0.16% of 140,000 active; fluorescence Ex485/Em525; inhibition, %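 (about 10 µM by stock and volumes)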;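 active = inhibition of 50% or more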;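 also: controls were vehicle for no effect and minimum signal wells for full effect; inactives centre near -20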
Arbovirus anti = antivirals against arbovirus infection; arbovirus infection cell-based antiviral screen; inhibition, % at 10 µM; 0.37% of 200,000 active;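 active = inhibition from about 30%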;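 also: bluetongue infection of BSR cells; cell survival read as ATP light after 72 h; 0% = infected wells without compound and 100% = uninfected wells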
Mtb H37Rv = M. tuberculosis H37Rv growth inhibitors, H37Rv strain (AID 1626). M. tuberculosis H37Rv growth inhibition; higher % means a stronger effect. one-dose inhibition, % at 10 µM; IC50 in µM for titrated hits. 0.95% of 220,000 active;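 active = confirmed in a dose series; inconclusive = inhibition above 80% but not taken into the dose series; inactive = below 80% or under 30% at every dose of the series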;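 also: bacteria incubated seven days before Alamar blue readout; 0% = bacteria only wells and 100% = bacteria with antibiotic wells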
Mtb betalactam = beta-lactam sensitization of Mtb H37Rv | inhibition, % at 25 µM | 0.27% of 330,000 active | AID 434955 | M. tuberculosis H37Rv growth with meropenem, percent inhibition; hits of this screen are not shown here;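 active = about 74% or more and at least 40 points above the plate without the antibiotic, then above 30% in a dose series; inconclusive = first-round hits that could not be retested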;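 also: growth measured after seven days incubation then overnight dye step; 0% = bacteria only wells and 100% = bacteria with antibiotic; twin plates without the antibiotic show which effects depend on it; some results filed as inactive read as strong as hits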
Arbovirus anti repeat = recorded beside Arbovirus anti, whose call it bears; inhibition, %; measured here: 10K subset replicate screen; many hits read low in the repeat;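 first of two repeat runs on a subset; 0% = infected and 100% = uninfected wells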
Numbers without * were called inactive; ? = inconclusive; . = not tested or not shown. Only part of the results is shown (hit frequency here may not be typical).

SMILES	RecA intein inh	YopH PTP inh	Arbovirus anti	Mtb H37Rv	Mtb betalactam	others
COc1ccc(C2/C(=C(\O)c3cc(C)ccc3C)C(=O)C(=O)N2CCN(C)C)cc1OC (stereo unspecified)	.	-29	-3	1%	-11
CN(CCCNC(=O)CN1C(=O)CC(C)(C)S(=O)(=O)c2ccccc21)C1CCCCC1	-0.2	-13	4	.	-4
COc1ccc(/C(C)=N/N=C2/NC(=O)CC(C(=O)O)S2)cc1 (stereo unspecified)	-3.5	-27	4	3%	2
O=c1[nH]c(CSc2nnc(Cc3ccccc3)o2)nc2ccccc12	-0.3	.	1	-11%	5
O=C(OCC(=O)N1CCCCC1)c1ccccc1SCC(=O)N1CCCCC1	2.4	.	16	10%	-7
O=C(NCc1ccc(N2CCCC2=O)cc1)c1cn(CCc2ccccc2)nn1	7.4	-11	-2	8%	4	Arbovirus anti repeat=2
CC(=O)C1C2c3ccccc3OC1(C)N=c1s/c(=C/c3cnn(C)c3)c(=O)n12 (stereo unspecified)	2.2	-48	-9	-2%	-10
CC(=O)Nc1c(NC(C)C)c2ccccc2oc1=O	3.4	-22	7	-8%	-8
O=c1ccc2ccc(Oc3ccc([N+](=O)[O-])cc3[N+](=O)[O-])cc2o1	6.0	-23	5	45%	48
Cc1cccc(N(CC(=O)NC2CCCC2)C(=O)c2cc3cc4cccc(C)c4nc3s2)c1C	7.6	4	-28	8%	7

Ordered by number of heavy atoms (smallest number first): some entries from above.
SMILES	RecA intein inh	YopH PTP inh	Arbovirus anti	Mtb H37Rv	Mtb betalactam	others
COc1ccc(/C(C)=N/N=C2/NC(=O)CC(C(=O)O)S2)cc1 (stereo unspecified)	-3.5	-27	4	3%	2
O=c1ccc2ccc(Oc3ccc([N+](=O)[O-])cc3[N+](=O)[O-])cc2o1	6.0	-23	5	45%	48
O=C(OCC(=O)N1CCCCC1)c1ccccc1SCC(=O)N1CCCCC1	2.4	.	16	10%	-7
CN(CCCNC(=O)CN1C(=O)CC(C)(C)S(=O)(=O)c2ccccc21)C1CCCCC1	-0.2	-13	4	.	-4
COc1ccc(C2/C(=C(\O)c3cc(C)ccc3C)C(=O)C(=O)N2CCN(C)C)cc1OC (stereo unspecified)	.	-29	-3	1%	-11
Cc1cccc(N(CC(=O)NC2CCCC2)C(=O)c2cc3cc4cccc(C)c4nc3s2)c1C	7.6	4	-28	8%	7

Next part:
SMILES	RecA intein inh	YopH PTP inh	Arbovirus anti	Mtb H37Rv	Mtb betalactam	others
O=C(CCCN1C(=O)c2cccc3cccc(c23)C1=O)N1CCN(c2ccccc2O)CC1	-5.0	-27	-16	-5%	0
O=C(Nc1cc2nn(-c3ccccc3)nc2cc1Cl)c1ccco1	2.1	3	-21	3%	4
OCc1n[nH]c(CO)n1	-0.1	-4	4	-11%	6
COC(=O)Nc1nnc(Cc2ccc(OC)cc2)s1	-1.5	-33	3	-9%	1
COc1cccc(CNc2ncn[nH]2)c1OCc1ccccc1F	-3.6	.	6	7%	1
CCOC(=O)c1[nH]ncc1CN1CCCC(C(=O)c2ccc(OC)cc2C)C1 (stereo unspecified)	4.3	.	2	-7%	-5
Cn1nnnc1SCC(=O)c1c(N)n(C)c(=O)n(C)c1=O	2.5	-42	-3	1%	-7
COc1ccc(NC2=NCCC2)cc1	-0.7	-3	-2	-1%	-1
COC(=O)c1ccc(NC2c3ncccc3C(=O)N2Cc2cccs2)cc1 (stereo unspecified)	4.6	.	2	-7%	1
CCOc1ccccc1-n1c(COc2ccc(C)cc2)nnc1SCC(N)=O	0.6	-10	3	-5%	?
CCN(CC)c1ccc(C(=O)OCc2c(C)noc2C)cc1	1.2	.	1	-3%	1
CC(C(=O)OCc1nnc(-c2ccccc2)o1)N1C(=O)c2ccccc2C1=O (stereo unspecified)	-0.4	-6	0	-2%	-2
Cc1[nH]c(=O)c(C#N)cc1-c1csc(-c2ccccc2)n1	-1.7	.	.	.	7
COc1ccc(C(=O)c2cnc(/N=C/N(C)C)s2)cc1	-6.0	-27	3	-4%	7
CCC(C(=O)NCCCN(CC)Cc1ccccc1)n1nc(C)c2sc3ccccc3c2c1=O (stereo unspecified)	3.7	.	.	.	5
COc1ccc(C2/C=C\CN(C(=O)NC(C)C)CC(=O)N2Cc2ccc(F)cc2)cc1 (stereo unspecified)	1.1	.	.	-9%	-8
COc1cccc(CNC(=O)CCC2CCCN(Cc3ccc4c(c3)CCO4)C2)c1 (stereo unspecified)	-0.3	.	.	-3%	-11
CCCCNCc1cc(OCC)c(OCC(N)=O)cc1Br	1.1	8	7	6%	-3
COC(=O)c1ccc(NC(=O)NS(=O)(=O)c2ccc(C)cc2)cc1	-1.6	-57	-6	56%	95
CCN(CC)c1ccc2cc(S(=O)(=O)c3ccc(C)cc3)c(=O)oc2c1	-73	10	7	0%	6
Cc1nc(N2CCc3ccccc3C2)[nH]c(=O)c1CCC(C)C	-3.8	-26	-1	-3%	12
COCC(C)N=C1NN=C(c2c[nH]c3ccccc23)CS1 (stereo unspecified)	-2.0	-31	5	-10%	1
CCOC(=O)C1=C(C)NC(=O)NC1c1ccc(OCCO)c(OC)c1 (stereo unspecified)	-0.6	7	2	-3%	-7	Arbovirus anti repeat=-2
CCOC(=O)c1c(NC(=O)CCN2C(=O)c3cccc([N+](=O)[O-])c3C2=O)sc(C(=O)OC(C)C)c1C	-0.8	8	3	4%	1
CC(=O)c1ccc(NC(=O)C2C3C=CC(O3)C2C(=O)O)cc1 (stereo unspecified)	3.8	.	.	.	-1
CC(C)c1ccc(COc2ccc(C(=O)N3CCOCC3)cc2)cc1	3.9	.	-18	27%	44
O=c1c2ccccc2c(/C=N/c2nnc(Cc3ccccc3)s2)c(O)n1-c1ccc(Cl)cn1	-9.0	-31	3	11%	9
CCN(CC)c1ccc(S(=O)(=O)Nc2cc(Cl)ccc2Cl)cc1NC(=S)NC(=O)C1CCCC1	16	-4	-24	1%	6
CCOC(=O)CSc1ccc(S(=O)(=O)N2CCCC2)cc1[N+](=O)[O-]	-2.9	.	1	-10%	0
O=C(Nc1ccnn1C1CCN(CCCC2CCCC2)CC1)c1ccccc1Cl	-2.1	.	.	.	3
COc1cccc(CN2CCN(Cc3cc(OC)c(OC)cc3[N+](=O)[O-])CC2)c1	-3.8	-23	14	-8%	0
C#CCOCCOCCOCCNc1nc(N2CCN(C(=O)[C@H](Cc3ccc(O)cc3)n3cc([C@@H](N)C(C)CC)nn3)CC2)nc(N2CCN(C(=O)[C@H](CCCCN)n3cc([C@@H](N)CC(C)C)nn3)CC2)n1 (stereo partly specified)	4.2	.	1	.	5
COc1ccc(C(=O)CN2CCCCC2)cc1	0.6	.	-1	-2%	-2
c1ccc(-c2nnnn2CCOCCn2nnnc2-c2ccccc2)cc1	1.5	-54	4	6%	12
Nc1nc(SCC(=O)NCCOCCO)nc2sc3c(c12)CCCC3	-1.1	.	2	0%	0
OCCNc1nc(Nc2ccccc2)nc2ccccc12	-9.6	-31	34*	4%	-13
COc1cccc(-c2nnc(NC(=O)c3ccccc3Br)o2)c1	1.9	.	5	3.8µM*	90	Arbovirus anti repeat=-8
O=C(O)CCc1c(C(=O)O)[nH]c2ccccc12	-0.6	-43	8	2%	-6
COCCN(CC(=O)Nc1ccccc1)S(=O)(=O)c1ccc(S(=O)(=O)N2CCCC2)cc1	-0.4	-30	-12	-1%	0
CN(C(=O)c1cc2c(s1)-c1ccccc1S(=O)(=O)C2)c1ccccc1	3.8	.	.	2%	-3
COc1ccc(C(=O)N/C(=C\c2cn(S(=O)(=O)N(C)C)c3ccccc23)C(=O)NCCCN2CCOCC2)cc1	1.8	.	.	.	-1
CCC(=O)N1CCN(c2ccc(NC(=S)NC(=O)COc3ccccc3)cc2)CC1	-2.0	.	1	9%	92
CC1CCC(C(C)C)C(OCC(O)C[N+]2(C)CCCCC2)C1 (stereo unspecified)	-1.2	.	7	-4%	4
Cc1[nH]c2ccccc2c1C(=O)CSc1n[nH]c(N)n1	1.0	.	2	-1%	1
CC(C)(C)n1nnnc1C(c1ccc(F)cc1)N(Cc1ccc(F)cc1)Cc1ccco1 (stereo unspecified)	8.3	-21	-14	-1%	2
CCOC(=O)c1ccc2c(c1)NC(=O)C(N1CCN(c3ccc(OC)cc3)CC1)S2 (stereo unspecified)	-0.7	-21	-4	-2%	-6	Arbovirus anti repeat=-5
NS(=O)(=O)c1ccc(CNC(=O)/C=C/c2ccc(Cl)c(Cl)c2)cc1	-0.4	-35	6	-10%	2
CCOC(=O)C[C@H]1c2ccccc2S(=O)(=O)N1c1cccc(OC)c1	0.4	.	.	-8%	-5
O=C(CCC(=O)NNC(=O)COc1ccc(Br)cc1Br)NCc1ccccc1	-0.9	.	-7	-10%	-1
Cc1ccc(C(=O)Nc2cccnc2)cc1S(=O)(=O)N1CCCCC1	0.7	.	2	-1%	-9

4 consecutive compounds from above:
SMILES	RecA intein inh	YopH PTP inh	Arbovirus anti	Mtb H37Rv	Mtb betalactam	others
NS(=O)(=O)c1ccc(CNC(=O)/C=C/c2ccc(Cl)c(Cl)c2)cc1	-0.4	-35	6	-10%	2
CCOC(=O)C[C@H]1c2ccccc2S(=O)(=O)N1c1cccc(OC)c1	0.4	.	.	-8%	-5
O=C(CCC(=O)NNC(=O)COc1ccc(Br)cc1Br)NCc1ccccc1	-0.9	.	-7	-10%	-1
Cc1ccc(C(=O)Nc2cccnc2)cc1S(=O)(=O)N1CCCCC1	0.7	.	2	-1%	-9

The list goes on:
SMILES	RecA intein inh	YopH PTP inh	Arbovirus anti	Mtb H37Rv	Mtb betalactam	others
CCNc1nc(Nc2ccc(C)c(Cl)c2)c2cnn(C)c2n1	2.7	.	.	.	94
CC(C)Oc1cccc(C(=O)C2CCCN(Cc3cnc(N4CCCC4)s3)C2)c1 (stereo unspecified)	0.7	.	-18	8%	3
CCc1ccc(N2CC34C=CC(O3)C(C(=O)OC(C)C)C4C2=O)cc1 (stereo unspecified)	2.8	-31	7	-3%	?
OCCNc1nc(N2CCN(Cc3ccccc3)CC2)nc2ccccc12	-1.8	-44	-17	-9%	0
COc1cccc(C(=O)Nc2cc(OC)ccc2NC(=O)c2ccco2)c1	0.6	.	.	.	-10
CNS(=O)(=O)c1cc(-c2nnc(Nc3ccc(CC(N)=O)cc3)c3ccccc23)ccc1C	0.5	.	.	.	4
COc1ccc(NC(C)C(=O)N2CCN(Cc3ccccc3)CC2)cc1 (stereo unspecified)	-1.9	.	.	.	-5
CN(C(=O)CN1C(=O)/C(=C/c2ccc(Cl)cc2)SC1=S)C1CCS(=O)(=O)C1 (stereo unspecified)	-0.6	.	.	.	4
Cc1ccc(Nc2ncnc3sc(C)c(C)c23)cc1	0.2	-7	-6	7%	20
CCOC(=O)N1CCN(CCC(=O)c2ccc(Cl)cc2)CC1	3.7	0	-30	51%	100
O=C(COC(=O)c1cn(-c2ccccc2)nc1-c1cccnc1)NC1CC1	-1.3	.	24	1%	0
